# PV pol inh = inhibitors of poliovirus RNA polymerase binding and polymerization; P03300; poliovirus polymerase elongation, fluorescence polarization; hits give low values; % elongation, % (compound at 16.7 µg/mL); actives 0.66% (n = 150,000); in the data active = % elongation below about 90%; also: some results filed as inactive read as strong as hits
# Target sequence (P03300 1749-2209 limits assumed): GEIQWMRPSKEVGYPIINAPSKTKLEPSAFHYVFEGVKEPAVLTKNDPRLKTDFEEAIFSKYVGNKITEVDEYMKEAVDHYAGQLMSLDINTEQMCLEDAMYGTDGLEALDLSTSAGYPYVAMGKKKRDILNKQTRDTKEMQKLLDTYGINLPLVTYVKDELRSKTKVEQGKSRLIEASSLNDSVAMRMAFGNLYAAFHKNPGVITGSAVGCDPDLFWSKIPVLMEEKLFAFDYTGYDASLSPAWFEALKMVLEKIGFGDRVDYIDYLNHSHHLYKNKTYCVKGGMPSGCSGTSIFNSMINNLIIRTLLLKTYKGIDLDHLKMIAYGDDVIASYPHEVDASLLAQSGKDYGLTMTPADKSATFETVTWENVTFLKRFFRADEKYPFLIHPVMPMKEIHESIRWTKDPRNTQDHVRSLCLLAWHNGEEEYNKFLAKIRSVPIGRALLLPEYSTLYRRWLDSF
# Mtb MbtI inh = blocks the Mycobacterium tuberculosis siderophore enzyme MbtI; actives 0.89% (n = 100,000); AID 493033; inhibition, %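 (about 17 µg/mL by stock and volumes)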; P9WFX0; purified MbtI enzyme, fluorescence intensity read-out;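 active = above 50% in both replicates, above 80% if mildly self-fluorescent; inactive = the rest, strongly fluorescent compounds included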;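 also: 0% = mean of negative and 100% = mean of positive controls; one replicate is shown; some compounds called inactive have numbers as strong as hits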
# Target sequence (P9WFX0 whole entry, looked up): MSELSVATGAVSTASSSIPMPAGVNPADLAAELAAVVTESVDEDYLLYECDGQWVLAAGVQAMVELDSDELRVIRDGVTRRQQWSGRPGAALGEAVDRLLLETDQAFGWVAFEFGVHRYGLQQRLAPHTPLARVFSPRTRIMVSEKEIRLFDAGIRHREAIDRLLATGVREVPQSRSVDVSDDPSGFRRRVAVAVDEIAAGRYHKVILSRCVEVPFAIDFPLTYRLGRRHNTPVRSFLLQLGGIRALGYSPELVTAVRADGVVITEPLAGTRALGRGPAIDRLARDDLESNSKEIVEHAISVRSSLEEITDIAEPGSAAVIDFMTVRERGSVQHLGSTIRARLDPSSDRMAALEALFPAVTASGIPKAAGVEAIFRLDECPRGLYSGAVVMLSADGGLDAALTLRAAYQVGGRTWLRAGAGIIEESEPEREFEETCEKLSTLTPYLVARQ
# MenB inh = inhibitors of Mycobacterium tuberculosis MenB enzyme | actives 0.43% (n = 100,000) | MenB enzyme assay, absorbance read-out; some hits fall short of the stated cut | P9WNP5 | inhibition, %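 (about 12 µg/mL by stock and volumes)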 | AID 540299;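 active = mean of two replicates above 30%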;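 also: 0% = no compound and 100% = wells with inactive enzyme; the first replicate is given; strong numbers were not always called active; inactives centre near -10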
# PV pol inh intensity = also measured in PV pol inh; calls as there; % elongation; measured here: total intensity read-out; formula for this scale not given here;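 total fluorescence in place of polarization; lower means less elongation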
# Active calls of the source: *; . = not tested or not shown; & = joins results of further samples.
# Preview, seven compounds:
smiles	PV pol inh	PV pol inh intensity	Mtb MbtI inh	MenB inh
Cc1nc(NCCN2CCOCC2)c2sc3nc4c(cc3c2n1)COC(C)(C)C4	100	104	12	-27
N#CC1(NC(=O)Cn2nnc3ccccc3c2=O)CCCC1	105	100	12	-41
O=C1CC(C(=O)O)N=C(Nc2nc3ccccc3s2)N1 (configuration not stated)	105	112	.	4
COC(C)(C)/C=C(\N)C(=O)c1ccccc1	99	98	3	-14
CCOc1ccc(S(=O)(=O)N2CCN(C(=O)[C@H](C)NC(N)=O)CC2)cc1	103	107	-4	0
Cc1ccc2c(COC(=O)c3c(C)noc3C)cc(=O)oc2c1	98	100	-8	9
c1ccc2c(c1)COC1(CCCCC1)N2	102	102	1	38*

# Main list, repeating the preview:
smiles	PV pol inh	PV pol inh intensity	Mtb MbtI inh	MenB inh
Cc1nc(NCCN2CCOCC2)c2sc3nc4c(cc3c2n1)COC(C)(C)C4	100	104	12	-27
N#CC1(NC(=O)Cn2nnc3ccccc3c2=O)CCCC1	105	100	12	-41
O=C1CC(C(=O)O)N=C(Nc2nc3ccccc3s2)N1 (configuration not stated)	105	112	.	4
COC(C)(C)/C=C(\N)C(=O)c1ccccc1	99	98	3	-14
CCOc1ccc(S(=O)(=O)N2CCN(C(=O)[C@H](C)NC(N)=O)CC2)cc1	103	107	-4	0
Cc1ccc2c(COC(=O)c3c(C)noc3C)cc(=O)oc2c1	98	100	-8	9
c1ccc2c(c1)COC1(CCCCC1)N2	102	102	1	38*
CCn1c(=NC(=O)CN2C(=O)c3ccccc3C2=O)sc2cccc(F)c21	105	102	-11	-13
Cc1ccc2oc(=O)c3cc(C(=O)N(C)Cc4ccco4)sc3c2c1	99	103	2	10
O=C(O)c1cccnc1Sc1ccc2c(c1)OCCO2	101	106	48	-9
O=c1cc(CSc2nnc(-c3ccco3)n2Cc2ccccc2)nc2sccn12	108	102	-8	-16
CCOc1ccc(N2C(=O)/C(=C/c3cccs3)C(=O)N(c3ccccc3)C2=S)cc1	106	104	73*	-22
O=C1NC2(CCN(C(=O)NCC3CCCO3)CC2)Oc2ccccc21 (configuration not stated)	100	103	-4	8
O=c1[nH]c(CSCc2ccco2)nc2ccccc12	105	107	16	-11
Cc1ccc(C(C)C)c(OC(=O)NC2(C(F)(F)F)Oc3ccc(Cl)cc3O2)c1 (configuration not stated)	105	109	.	7
CC(Sc1ccc(F)cc1)C(=O)NC(N)=O (configuration not stated)	104	107	-10	-6
CCC(Sc1ncccn1)C(=O)Nc1cc(C)on1 (configuration not stated)	98	99	.	-17
CCOCCn1ccc2c(OCC(=O)Nc3ccc4c(c3)OCCO4)cccc2c1=O	103	109	-3	-6
N#Cc1c(N)nc2c(c1N)CC(=O)N2C1CCS(=O)(=O)C1 (configuration not stated)	97	106	3	-42
COC(=O)c1ccc(NC(=O)Cn2cncn2)cc1	102	103	-1	-5
c1ccc(-n2ncc3c(N4CCCCC4)ncnc32)cc1	108	113	.	-11
CCOC(=O)C1=C[C@]2(CC)CCCN3CCc4c(n1c1ccccc41)[C@@H]32	100&102	103&103	-29&-52	-51&8
COC(=O)Cn1ncc2c3ccccc3n(Cc3cccc(Cl)c3)c2c1=O	104	109	19	-19
O=C(Nc1ccc2[nH]c(=O)oc2c1)c1ccccc1	102	98	152	16
O=C(Cn1ncc2c(=O)oc3ccccc3c21)Nc1nc2ccccc2s1	101	103	14	-7
CC(=O)NC(=O)c1cc2ccccc2oc1=Nc1ccc(Cl)cc1	102	103	3	2
Nc1c(C(=O)N2CCOCC2)sc2nc3c(cc12)CCCC3	101	101	3	-9
Cn1c(=NC(=O)COCC(=O)N=c2sc3cccc(F)c3n2C)sc2cccc(F)c21	101	104	-8	-20
CCCC1CC(C)(/C(C)=N\NC(N)=S)OC1=O (configuration not stated)	102	103	14	-7
Cn1c2ccccc2c2c(C(=O)N3CCCCC3)cn(C3CCCC3)c(=O)c21	102	106	107	-13
O=C(CC1(O)C(=O)Nc2ccccc21)c1cccc(-n2cnnn2)c1 (configuration not stated)	99	86	.	-23
Cc1cccc(C)c1NC(=O)C(c1ccccc1)N(Cc1ccco1)C(=O)Cn1nnc2ccccc21 (configuration not stated)	103	102	-26	-53
COc1ccc2c(c1)C(=O)N(C)C(=O)C2	92	93	46	.
CC1CN(C(=O)C(C)N2CCN(c3ncc(C(F)(F)F)cc3Cl)CC2)CC(C)O1 (configuration not stated)	100	107	-7	1
CCN1CCC2(CC1)N=C(c1ccccc1)C(=S)N2	104	104	77*	-23
CCC(=O)Nc1ccc[n+](-c2nc3ccccc3nc2C(=C=[N-])C#N)c1	105	113	-4	-64
COc1ccccc1N1CCN(c2cc(N3CCCC3)nc(C)n2)CC1	102	102	-4	-40
O=C(NCCOc1cccc(C(F)(F)F)c1)c1cccc(NC2=NC3CS(=O)(=O)CC3S2)c1 (configuration not stated)	101	103	7	-4
CCOC(=O)CCN1CCCCC1	102	106	-8	-63
O=C(CCn1c(=O)c2cccn2c2cccnc21)NC1CCCC1	102	99	29	12
Cc1ccc(-n2c(=O)[nH]c(=O)c3sc(N)nc32)cc1	103	101	20	-12
CCCn1c(=O)c2c(nc3n2CCCN3Cc2ccco2)n(C)c1=O	101	106	-7	-4
CCS(=O)(=O)c1ccc2oc(SCC(=O)Nc3ccc(Br)cc3F)nc2c1	105	105	-11	-10
Cc1cc(C)c(C#N)c(S(C)(=O)=O)n1	103	101	8	-29
Cc1ccc(S(=O)(=O)NCC(=O)O)cc1	104	105	-4	-24
COc1cc2c(cc1OC)CN(C(=O)CNC(=O)C13CC4CC(CC(C4)C1)C3)CC2	97	105	-15	-5
CC(c1ccc(F)cc1)N1CCCC1 (configuration not stated)	100	102	-9	-21
Cc1c(/C=N/N)c2ccccn2c1C#N	101	124	15	-4
Cn1c(-c2ccccc2)cnc1SCc1ccccc1	101	105	10	-7
CSc1ccc(NC(=O)NC2CCN(c3ncccn3)CC2)cc1	101	101	-14	7
CS(=O)(=O)NCC1CCCO1 (configuration not stated)	108	114	-9	-11
CCN(CC)C(=O)Nc1ccc(S(=O)(=O)NC)cc1	104	102	-19	4
Cc1ccc(OCCn2cc(C(=O)c3ccccc3)c3ccccc32)cc1	.	.	9	-51
CCc1c(C(C)O)oc2ccc3c(C)cc(=O)oc3c12 (configuration not stated)	105	106	10	-7
Oc1ccc(N=Cc2cn(-c3ccccc3)nc2-c2ccco2)cc1	103	102	18	-9
CC1C2=C(CCCC2=O)Nc2nc3ccccc3n21 (configuration not stated)	100	101	90	11
CC(=O)NC(c1ccccc1)c1ccc2cccnc2c1O (configuration not stated)	104	111	-4	-83
COc1ccc(NC(=O)/C(=C/c2ccc3c(c2)OCO3)NC(C)=O)cc1	104	101	8	-25
Cn1c(=O)c2c(O)c(C=Nc3ccc(Cl)cc3)c(=O)n(C)c2n(C)c1=O	113	105	-4	-16
Cc1ccc(C)n1CCC(C)C	120	137	-14	-19

# (more compounds)
smiles	PV pol inh	PV pol inh intensity	Mtb MbtI inh	MenB inh
COc1ccccc1NS(=O)(=O)c1ccc2oc(SCc3cn4c(C)cc(C)nc4n3)nc2c1	100	105	-27	-12
O=S(=O)(NCCC1=CCCCC1)c1ccc(-n2cccn2)cc1	101	98	-3	-8
O=C(O)CCn1c(-c2cccs2)n[nH]c1=S	.	.	-3	-9
CC1Cc2ccccc2N1C(=O)CSC1=NCCS1 (configuration not stated)	102	99	-3	.
COc1cccc(/C=C/C(=O)O)c1	101	107	.	-9
O=C1/C(=C/c2cccnc2)N2CCC1CC2	100	103	6	-40
Cc1oc(-c2cc(Cl)ccc2Cl)cc1C(=O)NCCO	105	107	-11	-9
CCCCCC1=CCC/C1=N\NC(=O)c1ccc(N(CC)CC)cc1	114	99	-14	-36
Cc1nc2c(c(C)c1CCC(=O)NC(C)C)c(=O)n(C)c(=O)n2C	99	103	10	-32
CC(C)CC(C(=O)NCc1ccccc1F)N1C(=O)C2CC=CCC2C1=O (configuration not stated)	107	108	-11	-7
Fc1cccc(CNCc2cn[nH]c2-c2ccc(Br)cc2)c1	103	102	-12	-22
CCN(CCO)C1CC(=O)N(c2ccccc2C)C1=O (configuration not stated)	99	102	100*	5
Cc1noc(C)c1CSCC(=O)N1CC(C)SC1=Nc1ccc(Cl)cc1 (configuration not stated)	104	108	-10	-6
CN(C)S(=O)(=O)c1cccc(-c2nnc(SCc3ccc4c(c3)OCCO4)o2)c1	104	99	-18	-22
Cc1sc2ncnc(N3CCC(C(=O)OCC(=O)NC4CC4)CC3)c2c1C	99	99	8	-8
N#C/C(N=Cc1cccs1)=C(\C#N)NCc1c(F)cccc1Cl	108	104	-15	-8
Cc1ccc(-n2c(=O)cc(N3CCc4ccccc43)[nH]c2=O)cc1	102	106	22	-3
CC1CCCN(C(=O)C2CCN(CC3CC=CCC3)CC2)C1 (configuration not stated)	102	105	0	18
CCCn1c(N2CCN(Cc3ccc(Cl)cc3)CC2)nc2ccccc21	98	110	-7	-1
c1ccn2c(Cc3nnc4ccccn34)nnc2c1	99	101	4	.
CN(C)c1ccc(/C=C2/S/C(=N/O)NC2=O)cc1	109	145	-18	-93
CC(=O)N=c1cccc(NC(C)=O)n1O	105	99	5	-15
O=C(/C=C/c1ccco1)OCC(=O)C12CC3CC(CC(C3)C1)C2	102	106	-7	.
O=C(c1ccccn1)N1CCN(c2ccc(C(F)(F)F)cn2)CC1	101	106	12	-26
N#CCC(=O)Nc1ccncc1	103	107	-6	-9
CCOc1ccc(/C=c2/sc3nnc(-c4ccccc4C)n3c2=O)cc1	101	98	9	-5
COc1cccc(N2C(=O)C=CC2=O)c1	102	102	99*	1
S=C(NCc1ccco1)Nc1ccccc1	102	102	4	37*
COC(=O)Nc1cccc(NC(=O)OC)c1F	104	102	5	-1
O=c1c(C2NCCC3(O)CCCCC23)coc2ccc(Cl)cc12 (configuration not stated)	101	103	1	3
CN(C)C(=O)Cn1c(=O)n(S(=O)(=O)c2ccccc2)c2ccccc21	106	101	-2	-35
Cc1ccc2c(c1)cc(CN(Cc1ccco1)C(=O)N(C)C)c1nnnn12	103	101	-3	-28
O=C(CNC(=O)c1cccc(F)c1)OC1CCCCC1=O (configuration not stated)	103	107	-6	6
CC(=O)NC(Cc1c[nH]c2ccccc12)C(=O)OCc1cc(=O)n2c3c(sc2n1)CCCC3 (configuration not stated)	106	102	0	8
Cc1nc2ccn(Cc3ccccc3)c(=O)c2cc1C(=O)O	104	103	118	-5
O=C(/C=C/c1ccccc1)Nc1ccc(C(=O)O)cc1	103	103	18	.
O=C(CN1CCCCC1)N/N=C/c1ccc(/C=N/NC(=O)CN2CCCCC2)cc1	108	100	-8	-14
COCCn1c(-c2cccc(C)c2)nn(CN2CCCC(C(N)=O)C2)c1=S (configuration not stated)	102	102	8	-20
CC(NCc1ccccc1)C1COc2ccccc2O1 (configuration not stated)	101	104	-12	5
CN1CCN(CC2COc3ccccc3O2)CC1 (configuration not stated)	97	106	.	5
COc1ccc(S(=O)(=O)N2CCC(NC(=O)NCC3CCCO3)CC2)cc1 (configuration not stated)	99	104	-2	9
O=C(Nc1cccnc1)OC1CCCC1	101	99	-8	-1
CN(C)C(CNS(=O)(=O)c1ccc(F)cc1)c1cccnc1 (configuration not stated)	104	107	-11	-9
Cn1nc(-c2ccc(S(=O)(=O)NCc3ccco3)s2)cc1C(F)(F)F	101	103	5	3
Nc1cc(=O)[nH]c(=O)n1CC12CC3CC(CC(C3)C1)C2	103	97	.	-4
CSc1c(C#N)c(-c2cccs2)nn1CC(=O)N/N=C/c1cccs1	98	95	-4	-6
Cc1cc(NCc2cccnc2)c2ccc(Cl)cc2n1	95	103	.	-4
CC1(c2ccc(Cl)cc2)NC(=O)CS1 (configuration not stated)	99	101	-10	-13
CC(C)NC(=S)N1CCCN2C(=O)c3ccccc3C21 (configuration not stated)	103	106	-9	-13
Brc1ccc(NC2=Nc3ccccc3CC2)cc1	103	98	2	.
Cc1nc(C)c(C(=O)NCc2ccccc2Cl)o1	102	106	18	-2
O=C(COC(=O)C1CC1)c1ccc(Cl)s1	109	114	-12	-23
CC1=CC(C)C(C(=O)O)C(C(=O)Nc2ccccc2)C1 (configuration not stated)	100	99	0	1
Cc1cc(C)cc(NS(=O)(=O)c2coc(C(N)=O)c2)c1	100	104	-9	-6
Nc1nc(SCC(=O)N(C2CCCCC2)C2CCS(=O)(=O)C2)nc2sc3c(c12)CCCC3 (configuration not stated)	106	105	38	-23
O=c1[nH]c(=S)[nH]c(O)c1CN1CCOCC1	104	108	.	-1
CCOC(=O)C1=C(N)OC(c2cccc(OC)c2)=C(C#N)C1c1ccccc1 (configuration not stated)	105	103	.	-3
Cc1[nH]c2ccc(C(=O)Oc3ccc4c(c3)OCO4)cc2c1C	102	102	44	-10

# Screens deposited in PubChem BioAssay by ICCB-Longwood Screening Facility, Harvard Medical School.
